ALR inh – human ALR oxidase inhibition via reduced H2O2; P55789; purified ALR, DTT oxidation, H2O2 HRP-luminol luminescence; inhibition, % (no concentration beside the values); 290,000 compounds, 3.8% hits;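 active = mean and each replicate at 75% or more; inconclusive = only one of the two met; inactive = neither met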;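 note: stock transfer was 7.5 nL into about 7.5 µL; 0% = neutral wells and 100% = wells with inactivated enzyme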
Target sequence (P55789 whole entry, looked up): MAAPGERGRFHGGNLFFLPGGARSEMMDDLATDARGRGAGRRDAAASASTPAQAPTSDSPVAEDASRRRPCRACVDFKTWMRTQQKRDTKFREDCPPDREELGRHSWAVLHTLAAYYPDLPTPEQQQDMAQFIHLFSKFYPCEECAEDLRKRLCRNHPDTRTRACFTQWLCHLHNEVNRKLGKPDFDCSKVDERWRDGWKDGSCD
B2AR ag – human beta-2 adrenergic receptor agonism by FAP; response, % (test concentration not listed); Am2.2-beta2AR cells, FAP receptor internalization, flow cytometry; reference of the scale not given here; 340,000 compounds, 0.43% hits; P07550;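 active = response above a set limit, near 3 SD of response in nonfluorescent compounds, cut at about 42% in these data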;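 note: stock transfer was 100 nL into about 11 µL; a reference agonist was the positive control; negative values mostly stem from fluorescent compounds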
Target sequence (P07550 whole entry, looked up): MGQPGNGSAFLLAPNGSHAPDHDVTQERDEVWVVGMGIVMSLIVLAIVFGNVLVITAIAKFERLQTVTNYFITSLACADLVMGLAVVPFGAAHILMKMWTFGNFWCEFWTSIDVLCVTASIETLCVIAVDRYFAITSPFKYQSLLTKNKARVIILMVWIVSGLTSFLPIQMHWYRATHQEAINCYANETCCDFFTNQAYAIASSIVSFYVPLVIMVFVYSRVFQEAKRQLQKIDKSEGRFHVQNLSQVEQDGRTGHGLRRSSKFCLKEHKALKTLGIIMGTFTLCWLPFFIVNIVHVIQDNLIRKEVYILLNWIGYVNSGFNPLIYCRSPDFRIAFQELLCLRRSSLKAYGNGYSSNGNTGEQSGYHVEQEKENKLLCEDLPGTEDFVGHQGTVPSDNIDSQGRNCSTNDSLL
UCH37 DUB inh – inhibitors of human deubiquitinating enzyme UCH37; inhibition, % (concentration not given with the values); Q9Y5K5; 330,000 compounds, 0.33% hits; AID 588478; purified proteasome/UCH37, Ub-AMC cleavage fluorescence;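 active = mean of two replicates above 20%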;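 note: 0% = compound-free wells with enzyme and 100% = wells lacking proteasome; stock transfer was 100 nL into about 20 µL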
Target sequence (Q9Y5K5 whole entry, looked up): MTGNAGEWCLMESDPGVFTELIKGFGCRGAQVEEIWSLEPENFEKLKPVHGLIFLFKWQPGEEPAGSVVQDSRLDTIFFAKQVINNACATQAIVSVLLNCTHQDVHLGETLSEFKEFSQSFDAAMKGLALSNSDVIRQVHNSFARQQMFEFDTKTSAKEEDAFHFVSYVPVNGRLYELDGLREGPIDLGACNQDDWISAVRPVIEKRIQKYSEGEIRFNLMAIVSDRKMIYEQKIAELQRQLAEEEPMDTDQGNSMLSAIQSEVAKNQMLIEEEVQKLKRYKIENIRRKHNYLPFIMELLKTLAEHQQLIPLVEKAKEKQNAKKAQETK
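Assay system: Proteasome-bound UCH37. Buffer or medium: pH 7.4 Tris-HCl (50 mM) with ovalbumin, ATP-MgCl2, DTT. Incubation: 30 min preincubation with enzyme, 25 min cleavage at room temperature. Measured by: fluorescence, ex 355 nm, em 460 nm. Read-out basis: percent inhibition. Control set: wells without proteasome as full block, compound-free enzyme plus substrate as uninhibited.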
HNF4A DNA FP – change in binding of human HNF4 alpha to DNA | HNF4a-FITC DNA binding, fluorescence polarization, 1 h | activity change, % at 10 µM | 360,000 compounds, 0.3% hits; in the data active = activity change above about 30%, passing the limit was not always enough;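 note: controls were the assay level and a saturating level of protein; the project sought stronger binding though the title names inhibitors; some compounds called inactive have numbers as strong as hits; positive values seem to mean higher polarization but the record does not say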
Ecoli growth – E. coli growth inhibition. OD600 absorbance (concentration not given with the values). Escherichia coli growth, OD600, 23 h; stronger effect = lower value. 330,000 compounds, 0.21% hits;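 active = OD600 absorbance below the run mean of sample wells minus 3.6 SD, in any replicate, cut at about 0.56 in these data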;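 note: stock transfer was 300 nL into about 60 µL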
LANA-H2B inh – blocks KSHV LANA binding to histone H2A/H2B. Q9QR71. cell-free LANA-H2A/H2B peptide, fluorescence polarization. inhibition, % (test concentration not listed). 320,000 compounds, 0.6% hits. AID 2629; in the data active = inhibition mostly above about 10%, no sharp cut-off; inactive = mostly below about 6.7%;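 note: stock transfer was 7.5 nL into about 10 µL; 0% = median of vehicle wells and 100% = median of positive control wells; one replicate is shown; the record names a cut of 25% in any replicate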
FGF22 binding – FGF22 (human) thermal shift binding; calls only at 9.99 µM; 340,000 compounds, 1.5% hits; AID 651658; recombinant FGF22 thermal shift, SYPRO orange fluorescence; percent of sucrose octasulfate shift, DMSO zero;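 active = melting point raised past a set limit in the mean and every replicate; inconclusive = no clear call; three in four hits are not shown here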
* hit, by the source's call; i = inactive; ? = inconclusive; . = no result given; + = active, no number.

SMILES	ALR inh	B2AR ag	UCH37 DUB inh	HNF4A DNA FP	Ecoli growth	LANA-H2B inh	FGF22 binding
O=C(Cn1cnc2c(nnn2-c2cccc(Cl)c2)c1=O)N1CCOCC1	-9.0	-1.0	0.8	0.9	0.759	0.5	i
O=C(CSc1nnc(-c2ccccc2)n1-c1ccccc1)c1cccs1	-7.9	-11.4	.	-0.5	.	1.1	.
Cc1ccccc1NC(=O)CCOc1ccccc1	-0.3	-10.7	1.0	0.2	0.688	0.4	i
COC(=O)c1cccc(NC(=O)C2CCCN2C(=O)c2cccs2)c1 (stereo unspecified)	.	1.7	-0.4	2.9	0.661	.	i
COC(=O)C(NC(C)=O)(Nc1ccccn1)C(F)(F)F (stereo unspecified)	-21.8	-0.6	-3.0	1.1	0.719	0.3	.
COc1cc(C)nc(Oc2ccc(=O)[nH]n2)n1	-4.5	-25.4	3.9	-2.9	0.796	-2.5	.
O=c1ccn(-c2cccc(C(F)(F)F)c2)nc1-c1ccn(-c2ccccc2F)n1	0.3	-7.7	2.3	-0.7	0.728	2.5	.
Cc1ccc(C(=O)NCC(=O)N2CCN(c3cccc(Cl)c3)CC2)s1	-5.4	-3.5	0.8	-1.0	0.664	2.1	i
CCCCOC(=O)Sc1nc2ccccc2o1	92.6*	9.7	2.5	-4.3	0.692	-0.4	.
CC1(C)SC2c3ccccc3C(=O)N2[C@@H]1C(=O)NC1CC1 (stereo partly specified)	-0.7	-0.7	2.6	-2.0	0.671	-3.2	i
CCc1ccc(OCC(=O)NC(=S)Nc2ccc(S(=O)(=O)NC3CCCCC3)cc2)cc1	-17.2	-4.2	4.2	-0.1	0.743	2.2	.
COCCNS(=O)(=O)c1cc(F)ccc1OC	-12.7	3.5	2.3	-0.3	0.694	4.2	.
O=C(Cn1c(C(F)(F)F)nc2ccccc21)OCC(=O)c1c[nH]c2ccccc12	51.9	-0.3	2.2	7.0	0.686	-2.4	.
CC#CCN1c2ccccc2[C@]23C[C@@H](C(=O)OC)N(C(=O)NCCBr)C2=NC(C(=O)OC)=C(C(=O)OC)[C@H]13	3.2	5.5	2.0	5.7	.	1.5	i
Cc1cc(C)c(S(=O)(=O)N2CCN(C3CC(=O)N(c4ccccc4Cl)C3=O)CC2)c(C)c1 (stereo unspecified)	-5.7	-4.3	-1.9	0.3	0.714	-1.8	i
CCN(C[C@H]1N[C@@](Cc2ccccc2)(C(=O)OC)[C@H]2C(=O)N(C)C(=O)[C@@H]12)C(=O)NC(C)C	-2.5	2.0	-1.3	1.1	0.707	+	i
CCNC(=O)CC1C(=O)N(c2cccc(C)c2)C(=O)N1CCC(C)C (stereo unspecified)	-18.2	-3.9	4.3	-1.3	0.627	-2.2	i
O=c1c2ccccc2sn1-c1cc(S(=O)(=O)N2CCOCC2)ccc1N1CCCC1	27.1	17.6	3.8	2.6	0.685	2.2	.
O=C1CS/C(=C\S(=O)(=O)c2ccc(Cl)cc2)N1	22.5	6.2	3.4	1.1	0.713	-5.2	.
Cc1cc(C(=O)OCC(=O)c2cccc([N+](=O)[O-])c2)c2ccccc2n1	-9.6	0.9	5.3	1.0	0.719	-2.5	.
Nc1nc(-c2ccccc2)cn1/N=C/c1ccccc1	16.9	-2.2	.	-0.9	.	2.7	i
O=C1N(c2ccccc2)C[C@@H]2C[C@@H](c3cccc4c3OCO4)N3CCC[C@@]123	0.8	2.1	-2.6	5.6	0.719	-0.1	.
O=C(NCC1CCCO1)c1cccc(Oc2ccccc2)c1 (stereo unspecified)	-24.1	-11.0	1.1	-1.4	0.663	-3.1	i
COc1ccc(C2CC(c3cccs3)=Nc3ccccc3S2)cc1 (stereo unspecified)	-16.2	2.5	3.3	6.1	0.712	-3.9	i
Cc1c(Cc2ccccc2)c(=O)oc2c(C)c(OCC(=O)NCc3ccccn3)ccc12	-4.6	45.2*	-15.9	3.2	0.741	1.4	i
Nc1cc(S(=O)(=O)C(F)(F)F)ccc1C(=O)O	10.4	-1.5	0.9	-0.6	0.703	2.6	.
CCOC(=O)N1CCC(Nc2nc3ccccc3n3cnnc23)CC1	-7.7	-22.3	2.8	2.4	0.661	3.9	i
CCOC(=O)CNC(=O)Nc1cc(C(C)(C)C)nn1-c1ccccc1	2.4	-8.1	0.1	-0.8	0.729	3.9	.
CC(=O)N(NC(=O)c1ccccc1Cl)C1CC(=O)N(c2ccc(C)cc2)C1=O (stereo unspecified)	0.3	-4.2	0.8	-2.6	0.658	-2.6	.
COc1ccc(CCNC(=O)COC(=O)COc2ccc(C#N)cc2)cc1	1.3	2.4	1.1	0.3	0.68	i	i
CCOC(=O)Cc1csc(NC(=O)CCCCCN2C(=O)c3ccccc3C2=O)n1	-4.8	-12.8	2.0	3.3	0.64	1.3	.
C[C@H](NS(=O)(=O)OCC(Cl)(Cl)Cl)C1CC1c1ccccc1 (stereo partly specified)	6.1	6.5	0.9	-2.0	.	-0.9	i
O=C(c1cnn2c(C(F)(F)F)cc(-c3cccs3)nc12)N1CCN(Cc2ccccc2)CC1	6.9	-2.3	-6.8	0.3	0.732	1.3	.
CN(C)S(=O)(=O)c1ccc(N2CCCC2)c(C(=O)NCC(=O)Nc2ccc(F)c(F)c2)c1	-5.3	6.2	-10.0	-2.6	0.649	4.1	i
CN(C)Cc1ccccc1COc1ccccc1	2.2	4.4	2.4	2.5	0.681	1.7	i
O=C(O)c1ccccc1Nc1ccc([N+](=O)[O-])c2nonc12	-59.0	11.9	18.0	6.7	0.633	-3.0	.
CCc1noc(C)c1C(=O)N1CCN(S(=O)(=O)c2ccccc2C(F)(F)F)CC1	12.9	-16.4	4.0	-32.9	0.672	3.0	i
O=C(COc1ncnc2ccccc12)NCc1ccco1	-3.2	7.2	-0.6	-1.0	0.689	4.2	i
CC1CN(S(=O)(=O)c2ccc(F)cc2)CN1C(=O)N1CCOCC1 (stereo unspecified)	-5.7	-5.1	1.9	-1.5	0.673	-1.7	i
CS(=O)(=O)NCC(c1cccnc1)N1CCN(c2ccc(F)cc2)CC1 (stereo unspecified)	.	-4.7	0.1	2.0	0.739	.	.
O=C(CSc1nc(O)cc(=O)n1C1CCCC1)Nc1cccc(Cl)c1Cl	99.1*	12.4	8.8	4.9	0.695	2.3	i
COc1ccccc1N1CCN(C(=O)CN2C(=O)c3ccccc3C2=O)CC1	1.1	-2.0	-0.4	1.7	0.684	4.3	i
O=C(O)c1cccc(O)c1O	2.5	-9.2	0.0	-0.9	0.641	0.1	i
CSc1cc(N2CCOCC2)nc(-c2ccccc2Cl)n1	0.4	-20.6	-2.7	1.6	0.648	-5.5	i
CCCNC(=S)Nc1c(C)n(C)n(-c2ccccc2)c1=O	0.6	8.9	2.2	0.4	0.659	-7.8	i
Nc1nc(Cl)cc(N2CCOCC2)n1	.	-9.3	3.5	-5.0	0.745	5.1	.
CCOc1ccc(C(C)=O)cc1CSc1nnc(-c2ccoc2C)n1N	?	4.0	3.1	2.6	0.721	0.4	.
CCC(Cc1ccccc1)NS(=O)(=O)c1ccc2c(c1)NC(=O)C(C)S2 (stereo unspecified)	-1.3	2.8	2.3	-2.3	0.623	-2.1	i

Record cards (already shown). Values in the order: ALR inh, B2AR ag, UCH37 DUB inh, HNF4A DNA FP, Ecoli growth, LANA-H2B inh, FGF22 binding
COc1ccccc1N1CCN(C(=O)CN2C(=O)c3ccccc3C2=O)CC1 across the screens: 1.1, -2.0, -0.4, 1.7, 0.684, 4.3, i
CCC(Cc1ccccc1)NS(=O)(=O)c1ccc2c(c1)NC(=O)C(C)S2 (stereo unspecified) across the screens: -1.3, 2.8, 2.3, -2.3, 0.623, -2.1, i

Further structures
SMILES	ALR inh	B2AR ag	UCH37 DUB inh	HNF4A DNA FP	Ecoli growth	LANA-H2B inh	FGF22 binding
O=[N+]([O-])c1cc(S(=O)(=O)Nc2ccccc2)ccc1Nc1ccccc1	.	0.5	3.8	-4.5	0.675	.	i
O=S(=O)(NCC(c1cccnc1)N1CCOCC1)c1ccccc1 (stereo unspecified)	-4.5	-1.3	2.8	0.6	0.735	-0.4	i
COc1cc(CN2CCN(CC#Cc3ccccc3)CC2CCO)cc(OC)c1 (stereo unspecified)	0.2	1.8	-3.7	-4.7	0.673	-2.9	i
Cn1c(=O)c2sccc2n2c(CCCC(=O)NCCc3ccc(S(N)(=O)=O)cc3)nnc12	-1.4	2.2	-0.2	-1.0	0.705	-4.0	.
COc1ccc(N2CCN(C(=O)CCCCCn3c(=S)[nH]c4cc5c(cc4c3=O)OCO5)CC2)cc1	4.6	5.8	1.6	1.1	0.702	1.0	.
Cc1ccc(-c2nn(-c3ccccc3)cc2/C=C/C(=O)Nc2nccs2)cc1	-0.9	-0.1	i	-5.5	0.705	1.3	.
CC(C)n1cnc2c(Nc3cccc(F)c3)nc(NCCO)nc21	12.7	-10.8	3.1	4.0	0.726	-1.4	i
O=C(NCCNC1CCC(c2ccccc2)CC1)c1ccc(F)cc1 (stereo unspecified)	-14.6	20.0	0.2	-0.6	0.664	-0.7	i
Cc1ccc(S(=O)(=O)CC(=O)Nc2nnc(C)s2)cc1	-1.7	-3.3	3.4	1.3	0.66	-2.8	i
CCC1CCCCN1C(=O)COc1cccc2c1CCN(C)C2=O (stereo unspecified)	-4.8	5.1	-0.4	0.6	0.715	0.7	i
C/C(=N\NC(=O)CCCNc1ccc(C)cc1)c1ccccn1	98.4*	-1.9	.	0.2	.	5.4	i
CCCOc1ccc(/C=N/NC(=O)CSCc2ccc([N+](=O)[O-])cc2)cc1OCC	1.0	7.5	.	-3.3	.	2.1	i
CCCCn1c(N)c(N(CC(C)C)C(=O)c2ccc(Br)s2)c(=O)[nH]c1=O	-0.5	3.6	-0.1	-1.6	0.689	9.9	i
O=C(COC(=O)c1cccc(OC(F)F)c1)Nc1ncccn1	-15.7	-2.5	0.3	-1.7	0.665	0.8	i
CC(C)N(C(=O)CSc1nnc(NC(=O)c2cccs2)s1)C(C)C	-25.5	4.2	8.6	4.3	0.691	-3.6	.
N#Cc1ccc(OCc2noc(-c3ccsc3)n2)cc1	-11.6	-12.2	3.0	-4.8	0.673	1.3	i
O=C(COC(=O)c1cccc(F)c1)Nc1cccnc1Cl	.	4.5	3.9	-0.1	0.701	1.2	i
CCc1ccccc1N1CN(Cc2ccco2)CNC1=S	-6.7	0.3	1.2	0.3	0.652	-7.2	i
COCCNC(=O)c1ccccc1-c1nc(-c2ccccc2OC)no1	-8.6	-0.3	0.6	-0.7	0.662	-0.6	.
Cc1ccc(S(=O)(=O)N2CCCCC2)cc1NC(=O)CSc1nnc(C2CC2)n1C	-8.2	-9.8	-0.5	-0.3	0.716	-0.6	i
O=C(CSc1nc2ncccc2[nH]1)NCc1ccco1	-7.0	-9.9	0.8	2.5	0.712	4.9	i
O=C(O)c1ccc(N/N=C/c2ccc(-c3ccc(Cl)cc3Cl)o2)cc1	.	11.2	.	-1.4	.	-8.6	i
CCNC(=S)NCCN1CCCCC1	-5.9	-1.0	1.3	-0.2	0.684	-2.9	.
COc1ccc(/C=C2/SC(=S)N(NS(=O)(=O)c3ccc(C)cc3)C2=O)cc1	.	7.0	9.5	-5.5	0.709	-3.3	i
Cc1ccc(NC(=O)CN2C(=O)CCS(=O)(=O)c3ccccc32)cc1Cl	-2.0	-3.7	4.4	-2.6	0.654	2.8	i
O=C(COC(=O)c1ccc(F)c(S(=O)(=O)N2CCOCC2)c1)NC1CCCCC1	-2.6	-0.9	-0.2	-1.9	0.675	0.9	i
Cc1ccccc1NC(=O)C1CC(Cl)=CCC1C(=O)O (stereo unspecified)	-0.5	4.9	1.5	0.1	0.719	4.7	.
COc1cc(OC)c(OC)cc1/C=N/NC(=O)c1cccc(S(=O)(=O)N2CCOCC2)c1	-9.5	-5.5	.	7.3	.	-2.2	i
COc1ccc(/C=C/c2c(-c3ccc(OC)cc3)sc3ccc(N4CCOCC4)cc23)cc1	72.5	5.6	-18.5	4.7	.	-1.8	.
CC(C)(C)C1=NN(C(=O)c2ccccc2)C(O)(C(C)(C)C)C1 (stereo unspecified)	10.1	2.9	1.2	-4.0	0.676	2.7	.

High-throughput results from PubChem.

A portion of the library; the hit share may differ from the screen's.
